Screens (PubChem)
Beta cell apopt: beta cell apoptosis inhibition | INS-1E cytokine-induced death, ATP luminescence, 48 h; percent of positive-control rescue, neutral wells zero | protection from apoptosis, % (test concentration not listed) | 0.8% of 300,000 active;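 active means all replicates at 75% or more, or half of them and the mean; inconclusive means half reach 75% but not the mean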;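 further: 0% = cytokine-treated negative control wells and 100% = positive control rescue; higher means more ATP so stronger rescue from cytokine killing; wells of about 40 µL received 100 nL stock; the first replicate is given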
rRNA inh HTS: inhibits bacterial ribosomal RNA function over humanized ribosomes; E. coli WT GFP vs humanized-ribosome RFP mutants, fluorescence, 24 h; hits give low values; DMSO median 0, no signal -100; GFP signal change (wild-type ribosome), % (no concentration beside the values); 1.6% of 350,000 active; AID 720706;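 active means significant combined selectivity score with lowered wild-type GFP, culture density cut under 30%, mutant RFP and density less affected; inactive means any of these conditions unmet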; further: one replicate is shown; some compounds called inactive have numbers as strong as hits
Calb FLC: affects C. albicans growth with fluconazole; C. albicans CaCi-2 (fluconazole-resistant clinical isolate) + fluconazole, Alamar Blue growth, 48 h; growth inhibition, % (concentration not given with the values); 0.57% of 300,000 active; AID 1979;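 active means most replicates above 75%; inconclusive means exactly half above 75%; inactive means most below 75%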;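 further: all wells also contain fluconazole at 8 µg/ml as a sub-toxic cotreatment; 0% = median of DMSO wells and 100% = median of geldanamycin control wells; wells of about 8 µL received 7.5 nL stock; the first replicate is given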
RanGTP-Impb inh: inhibitors of RanGTP-importin-beta interaction, primary screen, biochemical, FRET, CFP-Ran, YFP-importin-beta, homogeneous. cell-free CFP-Ran/YFP-importin-beta FRET ratio. inhibition, % (no concentration beside the values). 1.1% of 300,000 active. AID 2216;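 active means most replicates above 15%; inconclusive means exactly half above 15%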;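 further: 0% = DMSO wells and 100% = Ran loaded with GDP instead of GTP; wells of about 40 µL received 100 nL stock; the first replicate is given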
Bfl-1 A1 inh: inhibitors of the anti-apoptotic protein A1, read as caspase activation; MEF A1-2A-BIM cells, Caspase-Glo 3/7 luminescence, 3 h; percent of clofoctol response, vehicle zero; caspase activation, % (concentration not given with the values); 0.066% of 330,000 active;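 active means over half of replicate activation scores above 10%, or exactly half above 10 with the replicate mean above 10; inconclusive means replicate mean below 10 yet half the replicates above 10; inactive means over half of replicates below 10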;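 further: wells of about 30 µL received 50 nL stock; many hits fall short of the cut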
Vif A3G: HIV-1 Vif–A3G interaction blockers – biochemical, TR-FRET, GST-Vif 1-94, biotin-A3G peptide, dose response retest, primary screen (AID 1117319); one-dose inhibition, %; IC50 in µM for titrated hits; TR-FRET GST-Vif / biotin-A3G peptide binding; higher % means a stronger effect; test concentration not given here; strong numbers were not always called active; 0.57% of 260,000 active;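 active means above the screen mean plus three standard deviations and confirmed in dose response; inconclusive means results disagree or hit not tested in dose response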;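 further: Vif residues 1-94 fused to GST binding biotinylated APOBEC3G peptide 110-148; 0% = full assay without inhibitor and 100% = GST in place of GST-Vif; retest series ran down from 100 µM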
MLL AF4-AF9 inh: MLL-AF4/AF9 protein interaction inhibition; P42568; AlphaScreen, biotin-AF4 peptide binding to FLAG-AF9; 0.47% of 350,000 active; inhibition, % at 10 µM;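 active means every replicate reaching a set inhibition limit, whatever the replicate mean, cut at about 25% in these data; inconclusive means mean inhibition reaches that limit but some replicates miss it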;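 further: 0% = plate neutral control median and 100% = total signal loss; the record names both 10 and 1 µM as test concentration; the first replicate is given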
Target sequence (P42568 whole entry, looked up): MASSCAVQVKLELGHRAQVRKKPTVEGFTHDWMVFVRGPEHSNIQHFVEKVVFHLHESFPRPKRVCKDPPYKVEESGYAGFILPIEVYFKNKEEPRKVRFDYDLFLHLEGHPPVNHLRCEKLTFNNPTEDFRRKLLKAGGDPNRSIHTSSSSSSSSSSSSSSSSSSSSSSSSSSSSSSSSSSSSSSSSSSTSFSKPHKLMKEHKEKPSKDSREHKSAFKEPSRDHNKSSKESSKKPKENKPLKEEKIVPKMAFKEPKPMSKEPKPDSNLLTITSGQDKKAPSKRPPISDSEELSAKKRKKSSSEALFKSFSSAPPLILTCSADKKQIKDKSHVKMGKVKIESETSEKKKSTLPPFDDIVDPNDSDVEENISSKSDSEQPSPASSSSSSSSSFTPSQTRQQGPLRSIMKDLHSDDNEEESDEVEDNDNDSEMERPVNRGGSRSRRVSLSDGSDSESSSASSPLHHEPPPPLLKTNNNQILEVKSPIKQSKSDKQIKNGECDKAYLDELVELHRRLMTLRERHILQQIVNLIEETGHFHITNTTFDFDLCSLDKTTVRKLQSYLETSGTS
T cruzi inh: blocks replication of Trypanosoma cruzi; T. cruzi beta-gal in NIH3T3, luminescence, 90 h; inhibition, % (test concentration not listed); 1.4% of 300,000 active;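 active means mean inhibition across valid replicates above about 55%, limit read from the data; inconclusive means mean below that limit but half or more replicates reach it; inactive means mean below it, under half of replicates reach it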;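 further: signal also drops with host cell toxicity which is not excluded here; 0% = plate median of DMSO wells and 100% = zero luminescence signal; higher percent means less beta-gal luminescence so fewer parasites; stock transfer was 50 nL into about 50 µL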
rRNA inh HTS OD600: second read-out of rRNA inh HTS, no call of its own (marks repeat the call); OD600 change, %; measured here: OD600 growth;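 optical density of the mix in the first replicate; 0 = DMSO median and -100 = no signal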
rRNA inh HTS RFP: recorded beside rRNA inh HTS, whose call it bears; RFP signal change, %; measured here: RFP humanized mutant strains;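 first replicate; 0 = DMSO median and -100 = no signal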
* marks the source's active call; other numbers are inactive results; ? = inconclusive; / = no result given; & = joins results of further samples.

SMILES	Beta cell apopt	rRNA inh HTS	rRNA inh HTS OD600	rRNA inh HTS RFP	Calb FLC	RanGTP-Impb inh	Bfl-1 A1 inh	Vif A3G	MLL AF4-AF9 inh	T cruzi inh
Nn1c(SCC(=O)N2CCc3ccccc3C2)nnc1-c1cccs1	-3	/	/	/	4	0.1	0.0	2%	/	12
COc1cc2cnc(-c3ccccc3)c(-c3cc(OC)c(OC)c(OC)c3)c2cc1OC	-5	-14	-3	2.9	/	/	1.3	/	7.2	/
COc1cc(O)c(C(CC(=O)N2CCCC(C)C2)c2ccc3c(c2)OCO3)c(OC)c1 (centres undefined)	-1	-30	-38	-6.4	1	-1.5	0.1	/	5.0	-2
FCCCOc1ccc(/C=N/OCc2ccc(Cl)cc2Cl)cc1	4	/	/	/	-2	5.2	0.3	6%	/	-14
CCOC(=O)c1c(NC(=O)CC2Sc3ccc(C(F)(F)F)cc3NC2=O)sc(C)c1C (centres undefined)	-5	3	2	5.6	-13	-4.9	-0.4	-4%	-2.5	-12
CCOC(=O)C1CCCN(c2c(Nc3ccc(C)c(C)c3)c(=O)c2=O)C1 (centres undefined)	-3	-1	-2	0.4	-2	-4.0	1.8	20%	-1.1	3
O=c1[nH]cn[nH]1	/	3	5	-2.9	-7	?	0.5	-4%	-1.2	-3
CC(=O)N1CCN(Cc2nc3cc(NC(=O)c4ccccc4C)ccc3n2C)CC1	8	/	/	/	?	-1.5	0.3	-8%	/	-19
Cc1cccc(C(=O)Nc2nnc(Cc3ccccc3)s2)c1	-6	3	5	2.1	-11	0.5	-0.6	-6%	-0.6	-2
CC(NS(=O)(=O)c1ccc(Br)cc1)C(=O)NCC1CCCO1 (centres undefined)	-1	-3	2	2.3	-10	0.0	-0.1	/	-6.2	0
CCCn1cc(S(=O)(=O)c2ccc(C)cc2)c(=O)c2cc(OC)ccc21	1	2	-8	2.0	1	-0.3	1.1	5%	0.5	2
Cc1cccc(C(=O)Nc2ccccc2C(=O)OCc2c(C)noc2C)c1	3	-17	-14	-5.8	4	-0.1	/	9%	/	17
Cc1nnsc1-c1c(C(=O)O)c(C)nn1-c1ccc(OC(F)(F)F)cc1	4	12	15	0.7	0	2.3	-0.2	-3%	1.6	/
C/C(N)=C(/C#N)C(=O)COC(=O)c1ccc(OCC2CCCO2)cc1 (centres undefined)	-3	2	1	-2.6	-3	3.2	-0.4	/	-3.2	4
COc1cc(S(=O)(=O)Nc2ccc(C)cc2)ccc1N=Cc1c(C)[nH]n(-c2ccc(C)cc2)c1=O	6	12	-12	-2.3	?	-1.7	-0.7	/	-3.5	-4
Cc1cc(C)c(NC(=O)c2ccccc2N(C)S(C)(=O)=O)c(C)c1	-2	10	14	-6.5	11	0.6	0.4	-2%	-0.1	-12
COc1ccc(C(=O)NNC(=O)CSc2nnnn2-c2cc(OC)cc(OC)c2)cc1	-5	-4	-7	3.5	2	-3.1	-1.0	6%	-0.7	-10
CCC(C)c1ccc(N(C(=O)c2ccco2)C(C(=O)NC2CCCC2)c2cccnc2)cc1 (centres undefined)	-1	2	1	-1.5	-5	-3.0	-0.2	/	0.2	53
CCc1cc2c(CN3CCN(C)CC3)cc(=O)oc2cc1O	2	/	/	/	-17	114*	0.2	-5%	/	46
CCN1C(=O)c2cccc3c(S(=O)(=O)NCCc4c[nH]c5ccccc45)ccc1c23	-2	/	/	/	38	?	0.4	17%	/	-43
Cc1ccc(-c2cc(C(=O)N3CCOCC3)no2)cc1	/	0	0	-2.0	-12	-7.8	-0.8	/	-2.1	-2
COc1cc(OC)cc(C(=O)Nc2ncc3c(n2)CC(C)(C)CC3=O)c1	4	/	/	/	-14	-2.6	-0.5	6%	/	0
Cc1ccc(S(=O)(=O)NC2(C(F)(F)F)NC(=O)N(c3ccccc3F)C2=O)cc1 (centres undefined)	-4	3	10	-0.7	6	1.0	0.5	/	-2.2	-15
O=C(O)c1csc(-c2ccccc2)n1	3	5	1	3.9	15	-0.8	-0.2	10%	-10.0	-4
C#CCSc1nc(Cc2ccc(Cl)cc2)nc2ccccc12	-2	/	/	/	-4	?	-0.2	-13%	/	11
O=C(NC1CC(=O)N(c2ccc(Cl)cc2)C1)N1CCN(C(=O)c2ccco2)CC1 (centres undefined)	-9	-1	1	-0.7	2	-6.7	0.3	-3%	-16	1
COc1ccccc1NC(=O)Cn1ccn(-c2cccc3ccccc23)c(=O)c1=O	-3	5	-1	-0.8	0	?	1.2	-6%	-0.9	-17
COc1cc(/C=N/N2C(=O)C3C4c5ccccc5C(c5ccccc54)C3C2=O)ccc1O (centres undefined)	3	/	/	/	-8	-1.4	-1.1	/	/	5
COC(=O)COc1cc(C)cc2oc(=O)c(CC(=O)OC)c(C)c12	-1	/	/	/	-3	2.2	-0.2	2%	/	-6
CC(C)(C)n1nnnc1C(c1ccc(F)cc1)N1CCN(Cc2ccc3c(c2)OCO3)CC1 (centres undefined)	-4	/	/	/	-22	-0.6	-0.1	-11%&6%	/	10

A draw from above in order of heavy-atom count, low to high:
SMILES	Beta cell apopt	rRNA inh HTS	rRNA inh HTS OD600	rRNA inh HTS RFP	Calb FLC	RanGTP-Impb inh	Bfl-1 A1 inh	Vif A3G	MLL AF4-AF9 inh	T cruzi inh
O=C(O)c1csc(-c2ccccc2)n1	3	5	1	3.9	15	-0.8	-0.2	10%	-10.0	-4
Cc1ccc(-c2cc(C(=O)N3CCOCC3)no2)cc1	/	0	0	-2.0	-12	-7.8	-0.8	/	-2.1	-2
CCc1cc2c(CN3CCN(C)CC3)cc(=O)oc2cc1O	2	/	/	/	-17	114*	0.2	-5%	/	46
COC(=O)COc1cc(C)cc2oc(=O)c(CC(=O)OC)c(C)c12	-1	/	/	/	-3	2.2	-0.2	2%	/	-6
COc1cc(OC)cc(C(=O)Nc2ncc3c(n2)CC(C)(C)CC3=O)c1	4	/	/	/	-14	-2.6	-0.5	6%	/	0
O=C(NC1CC(=O)N(c2ccc(Cl)cc2)C1)N1CCN(C(=O)c2ccco2)CC1 (centres undefined)	-9	-1	1	-0.7	2	-6.7	0.3	-3%	-16	1
CCN1C(=O)c2cccc3c(S(=O)(=O)NCCc4c[nH]c5ccccc45)ccc1c23	-2	/	/	/	38	?	0.4	17%	/	-43
COc1ccc(C(=O)NNC(=O)CSc2nnnn2-c2cc(OC)cc(OC)c2)cc1	-5	-4	-7	3.5	2	-3.1	-1.0	6%	-0.7	-10
COc1cc(/C=N/N2C(=O)C3C4c5ccccc5C(c5ccccc54)C3C2=O)ccc1O (centres undefined)	3	/	/	/	-8	-1.4	-1.1	/	/	5
CC(C)(C)n1nnnc1C(c1ccc(F)cc1)N1CCN(Cc2ccc3c(c2)OCO3)CC1 (centres undefined)	-4	/	/	/	-22	-0.6	-0.1	-11%&6%	/	10

(more compounds)
SMILES	Beta cell apopt	rRNA inh HTS	rRNA inh HTS OD600	rRNA inh HTS RFP	Calb FLC	RanGTP-Impb inh	Bfl-1 A1 inh	Vif A3G	MLL AF4-AF9 inh	T cruzi inh
COc1ccc(NC(=O)C(NC(=O)Cc2cccs2)c2ccc(C)cc2)cc1 (centres undefined)	-2	11	6	1.6	-3	1.2	-0.4	32%	-2.5	-36
COC(C(=O)NNS(=O)(=O)c1ccc([N+](=O)[O-])cc1)c1ccccc1 (centres undefined)	-5	-8	10	-0.2	0	-0.3	?	/	-1.0	-1
CCN(C(=O)COC(=O)c1cnc(C)cn1)C1CCS(=O)(=O)C1 (centres undefined)	-7	5	5	-0.6	-4	-1.7	0.1	13%	1.0	1
COc1ccccc1NC(=O)COc1cccc(-n2cnnn2)c1	3	/	/	/	25	5.0	0.2	17%	/	-10
Cn1c(NCc2ccccc2)cc(=O)n(C)c1=O	-7	/	/	/	-1	-1.5	0.4	0%	/	2
COc1ccc(/C=C(/NC(=O)c2ccco2)C(=O)NCCc2ccccc2)cc1	-3	5	2	1.6	3	4.0	0.0	/	-0.3	-2
Cc1cc(C)c2c(CC(=O)Nc3ccc(Cl)cn3)coc2c1	-14	/	/	/	-3	-1.5	0.3	5%	/	17
COc1c(Cl)cc(Cl)cc1C(=O)Nc1ccc(NC(C)=O)cc1	-1	2	2	-3.4	-22	-0.3	0.1	5%	0.3	-9
N#C/C(=C\c1ccc(F)cc1F)S(=O)(=O)c1ccccn1	-6	12	9	4.1	-3	6.3	-0.1	23%	0.8	-3
O=C(NCCCN1CCOCC1)c1ccc2c(c1)N(Cc1ccccc1)C(=O)c1ccccc1S2=O (centres undefined)	1	5	3	-1.8	-28	0.7	1.5	/	1.6	9
COc1ccccc1NC(=O)CC12CC3CC(CC(Br)(C3)C1)C2	-8	2	-2	-2.0	2	-1.9	0.2	/	0.7	6
COc1ccc(OC)c(NC(=O)NC2(C(F)(F)F)Oc3ccccc3O2)c1	3	/	/	/	7	-1.5	-0.6	22%	/	10
COc1ccc(/C=N\NS(=O)(=O)c2ccc(Cl)cc2)cc1COc1ccccc1[N+](=O)[O-]	-7	/	/	/	4	-3.0	-0.6	27%	/	41
O=S(=O)(NC1CCCC1)c1ccccc1Br	-3	8	18	-1.9	-12	8.9	0.9	/	-0.7	-4
O=C(c1cc2ccccc2o1)N1CCCCCC1	5	/	/	/	-8	-0.9	-2.0	13%	/	-5
CCOc1cc(CN2CCCC(C(=O)c3cccc(C(F)(F)F)c3)C2)ccc1O (centres undefined)	2	2	4	2.6	-11	-2.3	0.0	-8%	2.9	35
CCOc1ccccc1NC(=O)N1CCCC(c2nc3c(nnn3Cc3ccc(C)cc3)c(=O)[nH]2)C1 (centres undefined)	/	/	/	/	?	1.2	/	-9%&10%	/	-9
COCCN(C(=O)Cn1nnc2ccccc21)C(C(=O)NC1CCCC1)c1cc(OC)ccc1OC (centres undefined)	-3	/	/	/	5	?	-0.9	2%&0%	/	12
CCOC(=O)c1c(NC(=O)c2ccco2)sc2c1CCCCC2	8	/	/	/	-4	-3.2	1.8	0%	/	19

A portion of the library; the hit share may differ from the screen's.
